# Compound activity as filed in PubChem BioAssay.
# BJeLR viab HTS – BJeLR cell viability reduction; BJeLR fibroblasts viability, CellTiterGlo ATP luminescence, 48 h; HRASV12, hTERT and SV40 LT/ST transformed; viability loss activity score, % (test concentration not listed); hit rate 0.64% among 30,000; AID 2275; in the data active means viability loss activity score above about 50%; about a fifth of its hits are not listed in these tables;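 further: higher score means fewer live cells and less ATP luminescence; stock transfer was 50 or 100 nL into about 30 µL; 0% = vehicle wells and 100% = a reference killing control; one replicate is shown; the record names a cut of 85%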
# A1 inh – blocks A1 activity; MEF A1-2A-BIM cells, caspase-Glo luminescence, 3 h; percent of clofoctol signal, DMSO as zero; caspase activation, % (test concentration not listed); hit rate 0.51% among 21,000; AID 2241;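 active means most replicate scores above 10, or exactly half above 10 with mean activity above 10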;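 further: effector caspase 3 and 7 activity cleaving a DEVD luciferin substrate; 50 nL library stock added to about 30 µL; numbers are from one replicate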
# Starred values were filed as active, the others as inactive; . = no result given. Some of the compounds tested; the hit share may differ from the screen's.
SMILES,BJeLR viab HTS,A1 inh
COc1ccc(CN(C)C[C@H]2Oc3c(NC(=O)c4ccc(-c5nccs5)cc4)cccc3C(=O)N([C@@H](C)CO)C[C@@H]2C)cc1,-3.5,.
Cc1ccc(S(=O)(=O)NCCc2nnc3ccc(SCC(=O)N4CCCC4)nn23)cc1,0.7,0.3
N#Cc1ccc(-c2csc(-c3ccc(C4SCCS4)cc3)n2)cc1,3.6,-1.3
CC(C)(C)C(=O)Nc1c(Cl)sc2nccc(=O)n12,3.0,0.3
CCOC(=O)CN1CC23C=CC(O2)C(C(=O)NCc2ccc(OC)cc2)C3C1=O (stereo unspecified),-1.4,.
C[C@H]1CN([C@@H](C)CO)C(=O)c2cc(NC(=O)C3CCCCC3)ccc2O[C@@H]1CN(C)Cc1ccc(Oc2ccccc2)cc1,4.9,0.5
Cc1cc(Cl)ccc1N=C(N)NN,-3.6,-0.5
Cc1ccc(S(=O)(=O)Nc2ccc3c(c2)C(=O)N([C@@H](C)CO)C[C@@H](C)[C@H](CN(C)C(=O)NC(C)C)O3)cc1,0.2,-0.4
NC(=O)C1C=C2C=CC=CC2OC1=Nc1ccccc1 (stereo unspecified),-1.9,0.3
C[C@H]1CN([C@@H](C)CO)C(=O)c2cc(NC(=O)Nc3ccc(C(F)(F)F)cc3)ccc2O[C@H]1CN(C)Cc1ccc2c(c1)OCO2,3.7,1.2
CCN(CC)CCCCCCCCOC(=O)c1cc(OC)c(OC)c(OC)c1,4.7,1.2
C[C@@H]1CN([C@H](C)CO)C(=O)c2cc(NC(=O)CCC(F)(F)F)ccc2O[C@@H]1CN(C)C(=O)Nc1ccc(F)cc1,-1.4,0.0
N#Cc1c(N2CCN(C(=S)NCc3ccccc3)CC2)nc(-c2ccccc2)c2c1CCCC2,-6.6,1.2
Cc1onc(-c2ccccc2Cl)c1C(=O)Nc1ccc(S(=O)(=O)N2CCC(C)CC2)cc1,-1.4,-0.3
COc1ccc(CN(C)C[C@H]2Oc3c(NC(=O)Nc4c(C)noc4C)cccc3C(=O)N([C@@H](C)CO)C[C@H]2C)cc1,1.2,.
CCc1ccc2c(c1)=C(c1sc(N)nc1O)C(=O)N=2,-6.2,0.8
N=c1c(S(=O)(=O)c2ccccc2)cc2c(=O)n3ccccc3nc2n1C1CCCC1,-0.6,-0.7
COC(=O)Cn1ncc2c3ccccc3n(Cc3cc(C)ccc3C)c2c1=O,2.5,0.7
COc1ccc(S(=O)(=O)N(C)C[C@H]2Oc3ccc(NC(=O)NC(C)C)cc3C(=O)N([C@@H](C)CO)C[C@@H]2C)cc1,-2.1,0.4
Cc1noc(C)c1S(=O)(=O)Nc1cccc2c1O[C@@H](CN(C)Cc1ccccc1)[C@@H](C)CN([C@@H](C)CO)C2=O,-5.8,.
C[C@H](CO)N1C[C@H](C)[C@H](CN(C)S(=O)(=O)c2ccc(Cl)cc2)Oc2ccc(NC(=O)CCN3CCOCC3)cc2C1=O,-6.1,-0.2
COc1ccc(CN(C)C[C@H]2Oc3ccc(NC(=O)Nc4c(C)noc4C)cc3C(=O)N([C@H](C)CO)C[C@@H]2C)cc1,3.2,0.0
Cc1noc(C)c1S(=O)(=O)Nc1cccc2c1O[C@H](CN(C)C(=O)Nc1ccc(C(F)(F)F)cc1)[C@H](C)CN([C@@H](C)CO)C2=O,0.1,.
C[C@@H]1CN([C@@H](C)CO)C(=O)c2cccc(NC(=O)Nc3ccccc3)c2O[C@H]1CN(C)S(=O)(=O)c1ccc(Cl)cc1,9.0,.
C[C@@H]1CN([C@@H](C)CO)C(=O)c2cccc(NS(=O)(=O)c3ccccc3)c2O[C@H]1CN(C)S(=O)(=O)c1ccccc1,4.2,.
CCOc1ccc(CCNC(=O)Cn2ncn3nc(-c4cccs4)cc3c2=O)cc1OCC,0.8,-1.1
CNC[C@H]1Oc2ccc(NS(=O)(=O)c3cccs3)cc2C(=O)N([C@H](C)CO)C[C@H]1C,-1.6,-0.3
FC(F)(F)c1cccc(C=NCc2ccc(-c3cccs3)s2)c1,-1.0,0.1
c1ccc2sc(N3CCN(Cc4ccc5c(c4)OCO5)CC3)nc2c1,-4.0,-1.3
Cc1cc(C)cc(NC(=O)Cn2c(=O)c3cccn3c3ccccc32)c1,17,56*
COc1ccc(CCc2cc(OC)cc(=O)o2)cc1,2.1,-2.5
Cc1ccc(Cn2nc(C)cc2C(=O)Sc2ccccc2)cc1,-4.3,-0.3
Cc1ccc2nc3c(cc(C(=O)NCCN4CCOCC4)c(=N)n3CC3CCCO3)c(=O)n2c1 (stereo unspecified),-3.3,-0.3
Cc1ccc(Oc2ncccc2C(=O)NCC(=O)O)cc1,-1.1,1.5
C[C@H]1CN([C@@H](C)CO)C(=O)c2cc(NS(C)(=O)=O)ccc2O[C@@H]1CN(C)C(=O)Nc1ccc(C(F)(F)F)cc1,2.3,0.0
Cc1cccc(N2C(=S)NC3c4cc(Cl)cc(Cl)c4OC2(C)C3C(=O)N(C)C)c1 (stereo unspecified),0.9,0.5
C[C@H]1CN([C@@H](C)CO)C(=O)c2cc(NC(=O)CCN3CCOCC3)ccc2O[C@@H]1CN(C)Cc1ccccc1,-0.2,0.5
C[C@H](CO)N1C[C@H](C)[C@H](CN(C)S(=O)(=O)c2cn(C)cn2)Oc2ccc(NC(=O)C3CCCCC3)cc2C1=O,-1.0,-0.6
C[C@@H]1CN([C@@H](C)CO)C(=O)c2cc(NC(=O)CCC(F)(F)F)ccc2O[C@H]1CN(C)CC1CC1,3.9,-0.1
CN1CCCC(CC2c3ccccc3Sc3ccccc32)C1 (stereo unspecified),2.8,1.7
CC1=C(C(=O)Nc2ccccc2)C(c2ccccc2)NC(=O)N1 (stereo unspecified),-1.6,0.3
CC1CC(O)(CC(O)(c2ccccc2)c2ccccc2)C(C)CN1C (stereo unspecified),7.5,0.3
N#C/C(=C\c1ccc(O)c(O)c1)C(=O)c1ccc(O)c(O)c1,-6.3,-6.1
CC(C)(C)n1nc2c(c1NC(=O)c1ccc(Cl)cc1)CSC2,8.6,-0.1
Cc1ccc(S(=O)(=O)N2Cc3ccccc3CC2C(=O)Nc2cccc3ccccc23)cc1 (stereo unspecified),-0.1,-0.2
C[C@@H]1CN([C@H](C)CO)C(=O)c2cc(NC(=O)NC3CCCCC3)ccc2O[C@@H]1CN(C)C(=O)Nc1ccc2c(c1)OCO2,-0.7,-0.7
CCc1ccc(NC(=O)c2sccc2-n2cccc2)cc1,3.4,0.3
COc1cc(O)c2c(=O)c(OC3OC(CO[C@@H]4O[C@@H](C)[C@H](O)[C@@H](O[C@@H]5O[C@@H](C)[C@H](O)[C@@H](O)[C@H]5O)[C@H]4O)C(O)C(O)C3O)c(-c3ccc(O)cc3)oc2c1 (stereo partly specified),10,-0.8
C[C@@H]1CN([C@H](C)CO)C(=O)c2cccc(NC(=O)C3CCOCC3)c2O[C@H]1CN(C)C(=O)Nc1ccccc1,-2.0,.
C[C@H](CO)N1C[C@H](C)[C@@H](CN(C)C(=O)Nc2ccc(C(F)(F)F)cc2)Oc2c(NC(=O)c3ccncc3)cccc2C1=O,-6.1,.
C[C@@H]1CN([C@@H](C)CO)C(=O)c2cc(NS(=O)(=O)c3ccc(F)cc3)ccc2O[C@@H]1CN(C)C(=O)Nc1ccccc1,2.5,0.5
C[C@H](CO)N1C[C@H](C)[C@H](CN(C)Cc2ccc(-c3ccccc3)cc2)Oc2c(NC(=O)C3CCCCC3)cccc2C1=O,5.6,.
CSc1nc(-c2ccco2)cc(C(F)(F)F)c1C#N,0.7,0.9
CN(C)CC#CC1(O)CCCCC1,-0.2,0.4
C[C@H](CO)N1C[C@H](C)[C@H](CN(C)C(=O)Nc2ccc(F)cc2)Oc2c(NC(=O)C3CC3)cccc2C1=O,-2.0,.
Cc1noc(C)c1NC(=O)Nc1cccc2c1O[C@@H](CN(C)S(=O)(=O)c1ccccc1)[C@@H](C)CN([C@H](C)CO)C2=O,-0.5,.
COc1ccc2nc(N3CCCCC3)c(/C=C3\SC(=S)NC3=O)cc2c1,11,1.5
C[C@@H]1CN([C@H](C)CO)C(=O)c2cc(NC(=O)CCCN(C)C)ccc2O[C@H]1CN(C)C(=O)Nc1ccc2c(c1)OCO2,0.8,-0.2
C[C@H]1CN([C@@H](C)CO)C(=O)c2cccc(NC(=O)NC3CCCCC3)c2O[C@H]1CN(C)Cc1ccc(Cl)c(Cl)c1,6.8,.
c1cncc(-c2noc(-c3cccs3)n2)c1,1.6,-5.4

# Sorted by molecular weight (lowest first): part of the list above.
SMILES,BJeLR viab HTS,A1 inh
CN(C)CC#CC1(O)CCCCC1,-0.2,0.4
c1cncc(-c2noc(-c3cccs3)n2)c1,1.6,-5.4
CCc1ccc(NC(=O)c2sccc2-n2cccc2)cc1,3.4,0.3
COc1ccc2nc(N3CCCCC3)c(/C=C3\SC(=S)NC3=O)cc2c1,11,1.5
C[C@@H]1CN([C@H](C)CO)C(=O)c2cccc(NC(=O)C3CCOCC3)c2O[C@H]1CN(C)C(=O)Nc1ccccc1,-2.0,.
C[C@@H]1CN([C@H](C)CO)C(=O)c2cc(NC(=O)CCCN(C)C)ccc2O[C@H]1CN(C)C(=O)Nc1ccc2c(c1)OCO2,0.8,-0.2
C[C@@H]1CN([C@@H](C)CO)C(=O)c2cc(NS(=O)(=O)c3ccc(F)cc3)ccc2O[C@@H]1CN(C)C(=O)Nc1ccccc1,2.5,0.5
Cc1noc(C)c1NC(=O)Nc1cccc2c1O[C@@H](CN(C)S(=O)(=O)c1ccccc1)[C@@H](C)CN([C@H](C)CO)C2=O,-0.5,.
C[C@H]1CN([C@@H](C)CO)C(=O)c2cccc(NC(=O)NC3CCCCC3)c2O[C@H]1CN(C)Cc1ccc(Cl)c(Cl)c1,6.8,.
C[C@H](CO)N1C[C@H](C)[C@@H](CN(C)C(=O)Nc2ccc(C(F)(F)F)cc2)Oc2c(NC(=O)c3ccncc3)cccc2C1=O,-6.1,.
COc1cc(O)c2c(=O)c(OC3OC(CO[C@@H]4O[C@@H](C)[C@H](O)[C@@H](O[C@@H]5O[C@@H](C)[C@H](O)[C@@H](O)[C@H]5O)[C@H]4O)C(O)C(O)C3O)c(-c3ccc(O)cc3)oc2c1 (stereo partly specified),10,-0.8

# Further records follow:
SMILES,BJeLR viab HTS,A1 inh
O=C(CCCn1sc2ccccc2c1=O)NCc1cccs1,0.2,1.2
NC(=O)CSc1nnnn1-c1ccccc1,-0.9,1.8
COc1ccc(S(=O)(=O)Nc2cccc3c2O[C@H](CN(C)C(=O)Nc2ccccc2)[C@H](C)CN([C@@H](C)CO)C3=O)cc1,1.0,.
O=C1/C(=C/C2CCCCC2)CCCc2ccccc21,2.0,.
Cc1ccc(S(=O)(=O)Nc2cccc3c2O[C@@H](CN(C)C(=O)NC(C)C)[C@@H](C)CN([C@H](C)CO)C3=O)cc1,1.6,.
C[C@@H]1CN([C@@H](C)CO)C(=O)c2cccc(NS(C)(=O)=O)c2O[C@H]1CN(C)C(=O)Nc1ccc(F)cc1,2.5,.
CN=C1S/C(=C\c2ccc(N3Cc4ccccc4C3)cc2)C(=O)N1C,-0.6,.
O=C(N1CCCc2ccccc21)C(F)(F)F,1.8,0.0
N/C(Cc1nc(-c2ccc(Cl)cc2)cs1)=N\O,2.2,-1.2
Cc1ccc(N2C(=S)NC3c4cc(Cl)ccc4OC2(C)C3C(=O)Nc2ccc(C)cc2C)cc1 (stereo unspecified),2.4,0.5
CCOC(=O)c1cn2c3c(ccc(C)c3c1=O)OC(CC)C2 (stereo unspecified),2.5,0.3
CC1CCN(C(=O)Cn2cnc3c(cnn3-c3ccccc3)c2=O)CC1,-2.0,-0.2
Cc1oc(-c2cccc(Cl)c2)nc1CN1CCCC(C(=O)NC2CCCc3ccccc32)C1 (stereo unspecified),6.0,.
CCSc1nc(SCC)c2c3c([nH]c2n1)CCCC3,-1.3,-0.9
CCC(SC1=Nc2ccccc2C2=NC(c3ccccc3)C(=O)N12)C(=O)Nc1cccc(OC)c1 (stereo unspecified),-0.5,.
CCOC(=O)CSc1nc2ccccc2o1,-0.3,-0.7
COc1ccc(-c2cc(C(F)(F)F)nc(SCC(N)=O)n2)cc1,2.1,-0.2
CCN1CCN(C(=O)Cn2nc(C)c3sc4ccccc4c3c2=O)CC1,1.0,0.7
COc1ccc(NC(=O)N(C)C[C@@H]2Oc3c(NS(=O)(=O)c4ccc(C)cc4)cccc3C(=O)N([C@H](C)CO)C[C@H]2C)cc1,-3.7,.
O=C(NCC1CCCO1)c1cc(-c2ccc(Cl)s2)nc2ccccc12 (stereo unspecified),-0.3,.
C[C@H]1CN([C@@H](C)CO)C(=O)c2cc(NC(=O)CCN3CCOCC3)ccc2O[C@@H]1CN(C)C(=O)Nc1ccc2c(c1)OCO2,-2.0,-0.6
C[C@H]1CN([C@@H](C)CO)C(=O)c2cc(NC(=O)Nc3cccc4ccccc34)ccc2O[C@@H]1CN(C)S(=O)(=O)c1ccc(Cl)cc1,2.2,-0.2
C[C@@H]1CN([C@H](C)CO)C(=O)c2cc(NC(=O)Nc3ccc(F)cc3)ccc2O[C@@H]1CN(C)C,1.1,0.1
O=C(NC(=O)c1cnccc1C(F)(F)F)Nc1ccc(Cl)cc1Cl,-2.5,0.2
C[C@H]1CN([C@@H](C)CO)C(=O)c2cc(NC(=O)CCC(F)(F)F)ccc2O[C@@H]1CN(C)S(=O)(=O)c1ccc(Cl)cc1,-8.6,-0.1
c1ccc(CN=C2SC(=Nc3ccccc3)C3=C2CCCC3)cc1,-1.1,0.5
CCOC(=O)NN1CNc2ccccc2C1=O,-2.6,.
C[C@H]1CN([C@@H](C)CO)C(=O)c2cccc(NS(C)(=O)=O)c2O[C@H]1CN(C)C(=O)Nc1cccc2ccccc12,-8.5,.
C=C1C(=O)O[C@H]2C1CCC(=C)[C@@H]1C[C@H](OC(=O)C=C(C)C)C(=C)[C@@H]12 (stereo partly specified),-0.5,0.4
O=C(O)c1cc(C23CC4CC(CC(C4)C2)C3)nc2ccc(Br)cc12,1.8,0.2
CC1CCN(C(=O)/C=C\c2ccccc2)CC1,-2.7,-4.6
CC1CCN(C(=O)CNC(=O)c2cccs2)CC1,2.6,-0.9
